Screening data deposited in PubChem by National Center for Advancing Translational Sciences (NCATS).
Marburg entry inh: blocks Marburg virus binding to or entry into cells. Marburg virus pseudotyped entry inhibition, cell reporter; control for the full effect not named in the record; about a third of the inactives were read at about 46 µM. Potency, µM (series often up to 37.8 µM), for the others: at the top dose activity change, negative = inhibition, actives largely listed as inhibitors. actives 1.8% (n = 300,000); active = well fitted inhibition curve with a large enough effect; inconclusive = small, poorly fitted or top-dose-only effect, or effect the other way; inactive = flat fitted curve, though single readings scatter; tested in HEK293 cells; about a fifth of its hits are not listed in these tables; further: on the % scale 0 is the no-effect control and ±100 the full control effect; luciferase read-out
Cruzain Triton: cruzain (T. cruzi) inhibition with detergent. purified cruzain, Z-FR-AMC fluorescence, 0.01% Triton. actives 0.43% (n = 200,000). AID 1478. Potency, µM, for inactives: max response, negative = inhibition, usual class: inhibitors;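 further: plate controls were neutral wells for no effect and buffer without enzyme for full effect; nearly all actives have a fitted effect of over 40% in size; top concentration of the series not given in the record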
Target sequence (P25779 123-467 limits assumed): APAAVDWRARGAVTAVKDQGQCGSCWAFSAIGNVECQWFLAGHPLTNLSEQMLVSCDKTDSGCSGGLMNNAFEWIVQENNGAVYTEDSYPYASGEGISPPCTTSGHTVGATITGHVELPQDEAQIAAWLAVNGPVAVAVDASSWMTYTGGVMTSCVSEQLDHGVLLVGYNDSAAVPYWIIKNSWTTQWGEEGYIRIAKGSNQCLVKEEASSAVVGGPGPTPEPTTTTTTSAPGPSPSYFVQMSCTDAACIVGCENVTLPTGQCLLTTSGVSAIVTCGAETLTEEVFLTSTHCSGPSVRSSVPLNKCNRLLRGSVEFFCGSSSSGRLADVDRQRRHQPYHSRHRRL
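Cruzain (1.5 nM) preincubated 15 min at RT with compound in 100 mM sodium acetate pH 5.5, 5 mM DTT, 0.01% Triton X-100. Reaction started with 2 uM Z-FR-AMC; AMC fluorescence (ex 360/em 450 nm) change over 60 s gave rate.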
RE007 growth inh: less growth of the S. pombe RE007 Vpr strain; AID 651644; actives 0.21% (n = 360,000); S. pombe RE007 Vpr strain, BacTiter-Glo ATP luminescence, 24 h; control for the full effect not named in the record; Potency, µM (series often up to 92.2 µM), for the others: at the top dose activity change, negative = less growth; active = well fitted falling curve with a large enough effect; inconclusive = small, poorly fitted or top-dose-only effect; inactive = no such curve, though single readings can be large or run the other way;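 further: on the % scale 0 is the no-effect control and ±100 the full control effect; nearly all actives have a fitted effect of over 50% in size; the assay follows cell death caused by Vpr and the record does not say whether a fall means rescue or toxicity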
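Fission yeast RE007 carrying one integrated HIV-1 vpr copy, seeded at OD 0.01 in PMG+AL medium with 23 nL pinned compound. Grown 24 h at 30 degrees; viability read by BacTiter-Glo luminescence after 5 min.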
Cruzain inh noDet: blocks cruzain activity in detergent-free assay; purified cruzain, Z-FR-AMC fluorescence, no detergent; Potency, µM, for inactives: max response, negative = inhibition, actives largely listed as inhibitors; actives 2.3% (n = 200,000); AID 1476;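 further: plate controls were enzyme without inhibitor for no effect and buffer without enzyme for full effect; nearly all actives have a fitted effect of over 40% in size; top concentration of the series not given in the record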
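Purified cruzain at 1.5 nM, pre-incubated 15 min with compound at room temperature in 100 mM sodium acetate pH 5.5, 5 mM DTT, 0.00005% Triton X-100. Reaction started with 2 uM Z-FR-AMC; AMC fluorescence increase over 60 s gives rate.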
NS1 inh: blocks influenza NS1 protein function; S. cerevisiae slowed by influenza A NS1, growth recovery by OD600; Potency, µM (titrated, usually from 46.1 µM), for the others: top-dose activity, positive = more growth; actives 0.4% (n = 270,000); AID 2326; active means well fitted rising curve with a large enough effect; inconclusive means small, poorly fitted or top-dose-only effect; inactive means no such curve, though single readings can be large or run the other way; further: nearly all actives have a fitted effect of over 50% in size
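In this qHTS, NS1 from influenza A is expressed in budding yeast, where it slows growth. Cells are switched from glucose to 2% galactose medium (pH 6.0, -URA), treated with compound, and growth recovery is read at OD600.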
2A StopGo: FMDV 2A StopGo reporter, luciferase signal; actives 1.2% (n = 410,000); Potency, µM (doses to about 57.9 µM), inactives show top-dose signal change, negative = less light; human cells with a luciferase reporter of 2A StopGo recoding; control for the full effect not named in the record; active = well fitted falling curve with a large enough effect; inconclusive = small, poorly fitted or top-dose-only effect; inactive = no such curve, though single readings can be large or run the other way; tested in HEK293T cells; further: on the % scale 0 is the no-effect control and ±100 the full control effect; nearly all actives have a fitted effect of over 45% in size; luciferase light after 4 h
SARS PLP yeast: blocks SARS-CoV papain-like protease in a yeast assay; Potency, µM (series often up to 32.9 µM), without a hit: top-dose activity, positive = growth rescue; AID 485353; S. cerevisiae expressing SARS-CoV PLpro, growth rescue; control for the full effect not named in the record; actives 0.19% (n = 330,000); active means well fitted rising curve with a large enough effect; inconclusive means small, poorly fitted or top-dose-only effect; inactive means no such curve, though single readings can be large or run the other way; further: 0% is about no effect; nearly all actives have a fitted effect of over 55% in size; growth read by luminescence after 48 h
Lassa entry inh: Lassa virus entry inhibition. Lassa virus pseudotype entry inhibition, cell reporter; control for the full effect not named in the record. Potency, µM (series often up to 37.9 µM), inactives show at the highest dose activity change, negative = inhibition, actives largely listed as inhibitors. actives 1.2% (n = 300,000); active means well fitted inhibition curve with a large enough effect; inconclusive means small, poorly fitted or top-dose-only effect, or effect the other way; inactive means flat fitted curve, though single readings scatter; tested in HEK293 cells; further: on the % scale 0 is the no-effect control and ±100 the full control effect; nearly all actives have a fitted effect of over 50% in size; luciferase read-out
* marks the source's active call; other numbers are inactive results; u = inconclusive; x = no result given; & = joins results of further samples; [ ] = dose if it differs, or a comment. Unless noted, the call rests on the fitted dose curve; in most records, active means well fitted curve in the direction sought with a large enough effect; inconclusive means small, poorly fitted or top-dose-only effect, or another doubt; inactive means no such curve, though single readings can be large; an effect the other way counts as inactive or inconclusive. Potency means the concentration at half of the fitted maximal effect. Random draw from the library. About 4.6% of those tested had a hit in this group.

SMILES | Marburg entry inh | Cruzain Triton | RE007 growth inh | Cruzain inh noDet | NS1 inh | 2A StopGo | SARS PLP yeast | Lassa entry inh
CCOc1cc(C(=S)N2CCOCC2)ccc1OS(=O)(=O)c1ccccc1[N+](=O)[O-] | -3% | -4.9% | 2% | 11% | 34% | 43%[activator] | -14% | u
COc1ccc(-c2cc(C(=O)O)c3c(C)nn(-c4ccccn4)c3n2)cc1 | 1% | 1.0% | -8% | -2% | 18% | -17% | 0% | -5%
COc1ccc(-c2cc3ccccc3n2CC(O)CNCCO)cc1 (stereo not drawn) | u | 2.2% | 6% | -5% | 16% | -24% | 5% | -19%
CCCC(=O)N1CCN(S(=O)(=O)c2cc(Cl)ccc2OC)CC1 | 10%[46.1 µM] | 5.7% | 9% | 2% | -2% | -6% | -11% | 12%
O=C1C(F)=CC(COC(c2ccccc2)(c2ccccc2)c2ccccc2)OC1n1cc(F)c(=O)[nH]c1=O (stereo not drawn) | u | x | 0% | x | x | 3.2µM* | x | 5.6µM*
COCc1[nH]nc2c1C(C1C=CCCC1)C(C#N)=C(N)O2 (stereo not drawn) | -6% | 0.4% | 6% | 8% | -1% | 32µM* | 1% | -5%
COc1ccc(Nc2oc(-c3ccc(COc4cccc(C)c4)o3)nc2C#N)cc1 | -24%[46.1 µM] | -5.9% | x | 16µM* | x | 0% | x | -3%[46.1 µM]
CN(CCCNC(=O)c1nn(C)c2c1CS(=O)(=O)c1ccccc1-2)Cc1ccccc1 | x | x | -10% | x | -10% | 0% | 0% | x
COc1cc(Cl)c(S(=O)(=O)n2cnc(C)c2)cc1Cl | -4% | -3.9% | -19% | 8% | -3% | x | -1% | 25%
CCC(=O)NC(=S)Nc1ccc2oc(-c3ccc(OC)cc3)nc2c1 | 2%[46.1 µM] | x | 0% | x | 8% | 5% | 0% | -7%[46.1 µM]
Cn1c(SCC(=O)Nc2ccc3c(c2)OCCO3)nnc1-c1ccco1 | 3% | 3.1% | 10% | 2% | -2% | -23% | -1% | 12%
CC1CCCCC1NC(=O)CSc1nncs1 (stereo not drawn) | 5% | -2.5% | -6% | -1% | u | -8% | 0% | 9%
CCOC(=O)c1oc2ccc(Br)cc2c1CSc1nnc(C)s1 | -5% | -4.5% | 8% | 28% | -10% | -5% | 7% | 11%
Cc1cccc(NC(=O)CSc2nc(C)c(Cc3ccccc3)c(=O)[nH]2)c1 | u | -1.4% | 13% | -8% | x | -7%&4% | 0% | u
CCCc1cc(C(=O)N2CCCC(N3CCN(c4ccc(F)cc4)CC3)C2)no1 (stereo not drawn) | x | x | -7% | x | 1% | -23% | -3% | x
CCc1ccccc1NC(=O)c1nnn(-c2ccc(F)cc2)c1C | u | -2.0% | x | -7% | x | 18% | x | u
CCOc1ccc(Oc2c(/C=N/NC(=O)C3CC3)c(C)nn2-c2ccccc2)cc1 | u | -1.6% | 9% | 5% | 8% | u | -15% | -21%
C=CCn1c(SCC(=O)OCC)nc2cc(C(=O)NCc3ccco3)ccc2c1=O | -2%&-2% | -8.1% | 10% | -8% | 2% | -4% | 6% | 1%
Cc1ccc(NC(=O)c2c(C)oc3ccc(O)c(CN4CCOCC4)c23)c(C)c1 | 8%[46.1 µM] | -2.7% | x | -6% | x | -20% | x | -13%[46.1 µM]
FC(F)(F)c1cccc(NC(=S)NCCN2CCOCC2)c1 | -1% | -2.2% | 3% | 1% | 4% | -4% | 4% | 9%
CC1CCCC(C)N1C(=O)COC(=O)Cc1c[nH]c2ccccc12 (stereo not drawn) | 26% | x | -13% | x | x | 12% | 3% | 3%[46.1 µM]
CN1N=C2c3ccccc3CCCC2C1c1ccc(F)cc1 (stereo not drawn) | 0%[46.1 µM] | x | 50% | x | -9% | -11% | -3% | u
CC1CN(C2CCN(C(=O)c3ccccc3)CC2)CC(C)O1 (stereo not drawn) | 0% | 1.3% | -9% | 4% | -9% | 42%[activator] | -2% | 8%
O=C(NNC(=O)C1CCCO1)c1ccccc1Cl (stereo not drawn) | 17% | -5.2% | 5% | 3% | 2% | 14% | -3% | 16%
Cc1c(C(=O)O)nnn1-c1ccccc1 | 10% | 8.1% | -4% | 1% | 1% | 0% | -3% | 13%
COC(=O)c1cnn(-c2nc(OC)cc(OC)n2)c1C | 17% | -2.8% | -14% | 21% | -10% | -10% | 19% | 6%
COc1ccc(-n2ccnc2SCC(=O)Nc2nnc(C)s2)cc1 | x | -1.7% | x | 5% | x | 6% | x | 7%[46.1 µM]
Nc1c(N(CCO)C(=O)/C=C/c2ccco2)c(=O)[nH]c(=O)n1Cc1ccccc1 | -10% | x | 0% | x | 0% | -4% | 2% | -12%
COc1cc(/C=C/c2cc(OC(C)=O)c3ccccc3n2)c(OC(C)=O)c([N+](=O)[O-])c1 | u | -2.6% | -5%[3.69 µM] | u | -3% | -2% | 2% | u
O=c1cc(CN2CCN(C/C=C/c3ccccc3)CC2)c2cc(O)c(-c3ccccc3)cc2o1 | -2% | -2.6% | 13% | u | 15% | -23% | -22% | -16%
COc1ccc(NC(=O)c2cccc(N3C(=O)C4C5C=CC(C6CC56)C4C3=O)c2)c(OC)c1 (stereo not drawn) | u | x | 8% | x | -9% | -30% | -1% | 18µM*
O=C1CCCC(=O)C1CS(=O)(=O)c1ccccc1 | -13%[46.1 µM] | x | 20% | x | 1% | -7% | 1% | 9%[46.1 µM]
Cn1ncc([N+](=O)[O-])c1C(=O)NC1CCCCC1 | x | x | 14% | x | 0% | -12% | -4% | x
COc1cc(C(=O)c2ccccc2Cl)c([N+](=O)[O-])cc1OC | x | x | 1% | x | 0% | 18% | 0% | x
CCOC(=O)/C=c1/s/c(=C/c2ccc3cc(OC)ccc3c2)c(=O)n1CC(=O)NCC1CCCO1 (stereo not drawn) | -4%[46.1 µM] | x | -12% | x | x | -20% | x | -17%[46.1 µM]
CSc1ccc(OC2CCN(Cc3ccccc3)CC2)cc1 | u | 1.3% | -9% | -1% | -5% | -20% | -1% | u
COc1ccc(Nc2nc3c(C)cccc3cc2C#N)c(OC)c1 | u | -2.1% | 1% | -10% | 4% | -13% | -9% | -9%
O=C(COc1ccccc1)Nc1ncc2c(n1)CCCC2=O | -18% | 2.2% | 4% | 2% | 1% | 0% | -3% | -4%
COc1ccc(C(CC(=O)O)NC(=O)c2ccco2)cc1OC (stereo not drawn) | 21% | 6.8% | 30% | 3% | 4% | -11% | 1% | 14%
Cc1cccc(-n2cnc(C(=O)NNC(=S)Nc3ccc(Cl)cc3)c2)n1 | 11µM* | x | 0% | x | x | -1% | 16% | u

3 structures out of the list, ordered by molar mass, rising:
SMILES | Marburg entry inh | Cruzain Triton | RE007 growth inh | Cruzain inh noDet | NS1 inh | 2A StopGo | SARS PLP yeast | Lassa entry inh
Cn1ncc([N+](=O)[O-])c1C(=O)NC1CCCCC1 | x | x | 14% | x | 0% | -12% | -4% | x
COc1ccc(C(CC(=O)O)NC(=O)c2ccco2)cc1OC (stereo not drawn) | 21% | 6.8% | 30% | 3% | 4% | -11% | 1% | 14%
COc1ccc(NC(=O)c2cccc(N3C(=O)C4C5C=CC(C6CC56)C4C3=O)c2)c(OC)c1 (stereo not drawn) | u | x | 8% | x | -9% | -30% | -1% | 18µM*

(list continues)
SMILES | Marburg entry inh | Cruzain Triton | RE007 growth inh | Cruzain inh noDet | NS1 inh | 2A StopGo | SARS PLP yeast | Lassa entry inh
CC(C)c1ccc(C(=O)N2CCN(c3cnn(C)c(=O)c3Cl)CC2)cc1 | 0% | x | -3% | x | -3% | -17% | 0% | -12%
COc1cccc(C(=O)Nc2nnc(C(C)C)s2)c1 | u | -2.4% | -11% | -1% | -2% | -35% | -19% | u
O=C(Nc1c(C(=O)Nc2ccc3c(c2)OCCO3)cnn1-c1ccccc1Cl)c1ccco1 | 2% | -5.9% | -7% | -10% | -20% | 18% | 1% | 7%
C=C(C)C(=O)Nc1cccnc1Oc1ccc(F)cc1F | 0%[46.1 µM] | x | 11% | x | -6% | 6% | 1% | u
Cc1ccc(N(C)S(=O)(=O)c2cccc(C(=O)Nc3nc4ccccc4[nH]3)c2)cc1 | 12µM* | -6.9% | -6% | u | u | 0% | -9% | 16µM*
COc1ccc(NC(=O)COC(=O)CNC(=O)C2CCCCC2)cc1OC | u | x | 3% | x | x | 8% | 0% | 11%
O=C(CN1CCCCC1)Nc1ccc(NC(=O)c2ccc(Cl)cc2)cc1Cl | u | 2.4% | 5% | -6% | -3% | -6% | 1% | u
O=C(CCc1nnc(-c2ccc3c(c2)OCO3)o1)NC(c1ccccn1)C(F)(F)F (stereo not drawn) | 16%[46.1 µM] | x | 40% | x | 1% | 40%[activator] | 0% | -9%
Cc1ccc(S(=O)(=O)N2CCCCC2)cc1NC(=O)COC(=O)c1c(F)cccc1F | -22%[46.1 µM] | x | -7% | x | -6% | -6% | -6% | 8%
Cc1cc(C)cc(-n2nnc(-c3nc(-c4ccc5c(c4)OCO5)no3)c2C)c1 | x | 3.1% | x | 0% | x | 17% | x | 1%[46.1 µM]
COc1ccc(CCC(=O)NC2CC(=O)N(c3ccc(F)cc3)C2)cc1 (stereo not drawn) | x | -0.2% | x | 12% | x | -12% | x | 2%[46.1 µM]
CCOC(=O)c1cc(-c2ccccc2)n(CC(=O)O)c1C | 5% | 1.8% | 2% | 7% | -1% | -20% | 9% | 14%
COc1cc(OC)cc(C(=O)n2nc(C)cc2C)c1 | 0% | -1.8% | 16% | -13% | -1% | x | 4% | -5%
COc1cc(CCC(=O)OCC(=O)Nc2ccc(C(N)=O)cc2)cc(OC)c1OC | x | x | 7% | x | 6% | -12% | 0% | x
CCCc1cc(=O)oc2cc(OCC(=O)Nc3ccc(S(N)(=O)=O)cc3)ccc12 | x | x | 2% | x | 8% | 0% | 0% | x
O=C(CN1CCN(S(=O)(=O)c2ccc(F)cc2)CC1)Nc1ccc2c(c1)OCO2 | 15% | 5.0% | 14% | -7% | 0% | u | -2% | 0%
Cc1ccc(C(=O)N(Cc2cccnc2)Cc2cc3cc(C)ccc3n3nnnc23)cc1 | u | x | 2% | x | 1% | -12% | 1% | -13%
